Vif A3G = inhibitors of Vif binding to APOBEC3G peptide, primary screen, biochemical, TR-FRET, GST-Vif 1-94, biotin-A3G peptide, dose response retest (AID 1117319); 260,000 compounds, 0.57% hits; TR-FRET GST-Vif / biotin-A3G peptide binding; higher % means a stronger effect; test concentration not given here; strong numbers were not always called active; inhibition, %, or IC50 in µM where a hit was titrated;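 active = above the screen mean plus three standard deviations and confirmed in dose response; inconclusive = results disagree or hit not tested in dose response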;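 note: Vif residues 1-94 fused to GST binding biotinylated APOBEC3G peptide 110-148; 0% = full assay without inhibitor and 100% = GST in place of GST-Vif; retest series ran down from 100 µM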
Calb FLC = C. albicans growth modulation with fluconazole; growth inhibition, % (concentration not given with the values); C. albicans CaCi-2 (fluconazole-resistant clinical isolate) + fluconazole, Alamar Blue growth, 48 h; 300,000 compounds, 0.57% hits;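 active = most replicates above 75%; inconclusive = exactly half above 75%; inactive = most below 75%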;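 note: all wells also contain fluconazole at 8 µg/ml as a sub-toxic cotreatment; 0% = median of DMSO wells and 100% = median of geldanamycin control wells; wells of about 8 µL received 7.5 nL stock; the first replicate is given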
LANA-H2A inh = blocks KSHV LANA binding to histone H2A/H2B; Q9QR71; cell-free LANA-H2A/H2B peptide, fluorescence polarization; inhibition, % (no concentration beside the values); 320,000 compounds, 0.6% hits; in the data active = inhibition mostly above about 10%, no sharp cut-off; inactive = mostly below about 6.7%;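 note: stock transfer was 7.5 nL into about 10 µL; 0% = median of vehicle wells and 100% = median of positive control wells; one replicate is shown; the record names a cut of 25% in any replicate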
Target sequence (Q9QR71 whole entry, looked up): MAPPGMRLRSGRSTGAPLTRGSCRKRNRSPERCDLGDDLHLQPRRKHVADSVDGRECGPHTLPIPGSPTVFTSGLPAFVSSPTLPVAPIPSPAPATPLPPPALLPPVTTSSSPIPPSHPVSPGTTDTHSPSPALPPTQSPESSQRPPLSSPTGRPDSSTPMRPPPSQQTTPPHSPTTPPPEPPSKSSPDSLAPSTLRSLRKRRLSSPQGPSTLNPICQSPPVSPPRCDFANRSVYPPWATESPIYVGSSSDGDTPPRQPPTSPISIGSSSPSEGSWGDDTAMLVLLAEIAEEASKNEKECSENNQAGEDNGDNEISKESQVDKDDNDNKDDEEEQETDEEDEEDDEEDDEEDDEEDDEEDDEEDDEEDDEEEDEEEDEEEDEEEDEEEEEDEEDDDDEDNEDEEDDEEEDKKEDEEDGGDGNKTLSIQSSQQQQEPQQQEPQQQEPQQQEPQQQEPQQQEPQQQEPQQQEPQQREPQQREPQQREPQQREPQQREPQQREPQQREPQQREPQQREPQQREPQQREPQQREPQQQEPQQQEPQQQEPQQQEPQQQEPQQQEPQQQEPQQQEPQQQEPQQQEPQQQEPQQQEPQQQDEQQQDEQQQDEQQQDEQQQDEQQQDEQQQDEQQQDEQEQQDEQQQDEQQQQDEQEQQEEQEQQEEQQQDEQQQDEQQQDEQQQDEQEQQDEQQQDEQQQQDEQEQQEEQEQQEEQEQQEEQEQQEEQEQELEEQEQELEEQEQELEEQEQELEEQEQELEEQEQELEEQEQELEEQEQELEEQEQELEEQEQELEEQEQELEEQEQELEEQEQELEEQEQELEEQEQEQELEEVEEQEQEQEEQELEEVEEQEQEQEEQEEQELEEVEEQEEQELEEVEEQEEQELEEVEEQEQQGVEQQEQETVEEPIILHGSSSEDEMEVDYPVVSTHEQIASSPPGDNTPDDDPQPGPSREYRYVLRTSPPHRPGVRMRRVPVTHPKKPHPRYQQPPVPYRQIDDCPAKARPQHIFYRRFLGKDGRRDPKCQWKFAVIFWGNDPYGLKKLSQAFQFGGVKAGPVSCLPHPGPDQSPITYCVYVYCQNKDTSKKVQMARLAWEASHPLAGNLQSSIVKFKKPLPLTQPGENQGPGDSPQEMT
MLL AF4-AF9 inh = inhibitors of human MLL-AF4/AF9 interaction; P42568; AlphaScreen, biotin-AF4 peptide binding to FLAG-AF9; inhibition, % at 10 µM; 350,000 compounds, 0.47% hits; AID 651704;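 active = every replicate reaching a set inhibition limit, whatever the replicate mean, cut at about 25% in these data; inconclusive = mean inhibition reaches that limit but some replicates miss it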;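 note: 0% = plate neutral control median and 100% = total signal loss; the record names both 10 and 1 µM as test concentration; the first replicate is given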
T cruzi repl = blocks replication of Trypanosoma cruzi; T. cruzi beta-gal in NIH3T3, luminescence, 90 h; AID 1885; inhibition, % (concentration not given with the values); 300,000 compounds, 1.4% hits;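 active = mean inhibition across valid replicates above about 55%, limit read from the data; inconclusive = mean below that limit but half or more replicates reach it; inactive = mean below it, under half of replicates reach it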;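 note: signal also drops with host cell toxicity which is not excluded here; 0% = plate median of DMSO wells and 100% = zero luminescence signal; higher percent means less beta-gal luminescence so fewer parasites; stock transfer was 50 nL into about 50 µL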
RanGTP-Imp inh = inhibitors of RanGTP-importin-beta interaction, primary screen, biochemical, FRET, CFP-Ran, YFP-importin-beta, homogeneous; 300,000 compounds, 1.1% hits; cell-free CFP-Ran/YFP-importin-beta FRET ratio; AID 2216; inhibition, % (concentration not given with the values);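 active = most replicates above 15%; inconclusive = exactly half above 15%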;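 note: 0% = DMSO wells and 100% = Ran loaded with GDP instead of GTP; wells of about 40 µL received 100 nL stock; the first replicate is given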
A1 inh = inhibitors of the anti-apoptotic protein A1, read as caspase activation | MEF A1-2A-BIM cells, Caspase-Glo 3/7 luminescence, 3 h; percent of clofoctol response, vehicle zero | caspase activation, % (no concentration beside the values) | 330,000 compounds, 0.066% hits;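 active = over half of replicate activation scores above 10%, or exactly half above 10 with the replicate mean above 10; inconclusive = replicate mean below 10 yet half the replicates above 10; inactive = over half of replicates below 10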;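 note: wells of about 30 µL received 50 nL stock; many hits fall short of the cut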
Beta apoptosis = beta cell apoptosis inhibition. 300,000 compounds, 0.8% hits. protection from apoptosis, % (test concentration not listed). INS-1E cytokine-induced death, ATP luminescence, 48 h; percent of positive-control rescue, neutral wells zero;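 active = all replicates at 75% or more, or half of them and the mean; inconclusive = half reach 75% but not the mean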;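 note: 0% = cytokine-treated negative control wells and 100% = positive control rescue; higher means more ATP so stronger rescue from cytokine killing; wells of about 40 µL received 100 nL stock; the first replicate is given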
Active calls of the source: *; ? = inconclusive; . = not tested or not shown.

SMILES | Vif A3G | Calb FLC | LANA-H2A inh | MLL AF4-AF9 inh | T cruzi repl | RanGTP-Imp inh | A1 inh | Beta apoptosis
O=C(CN1C(=O)S/C(=C\c2ccccn2)C1=O)Nc1ccc(F)cc1 | . | 7.7 | 2.0 | -1.0 | . | . | -1.2 | 5.7
COc1ccccc1Cn1c(=S)[nH]c2ccc(F)cc2c1=O | -106.6% | 3.4 | -2.0 | 0.7 | 6.4 | -4.6 | 0.2 | .
O=C(CC1C(=O)NCCN1Cc1cccc(F)c1)NC1CCCCC1 (stereo not given) | -1.6% | -1.2 | -2.7 | -0.6 | -8.9 | -0.5 | 0.1 | -2.8
Cc1nc2ccccc2nc1OCC(=O)NCc1ccc2c(c1)OCO2 | 5.6% | -9.4 | -4.3 | . | -9.0 | 2.6 | 1.7 | -0.9
CCn1c(SCC(=O)Nc2ccc3c(c2)OCO3)nnc1C1CC1 | . | 2.4 | 2.3 | 0.2 | -7.8 | -0.5 | -0.9 | 0.5
COc1cccc(C(=O)NCC2CCCN(C3CCCCC3)C2)c1OC (stereo not given) | 2.3% | -7.8 | -3.7 | -0.1 | 10.5 | 3.0 | 0.6 | .
CCOC(=O)[C@H]1[C@H]2COc3ccccc3[C@@H]2N2C(=O)c3c(C)cc(C)cc3NC(=O)[C@@]12C | . | . | 0.6 | 2.2 | . | . | -1.2 | 11.5
CCC(CC)C(=O)Nc1cccc(/C(C)=N/NC(=O)c2c(Br)cnn2C)c1 | 2.5% | 4.9 | 1.2 | . | 4.2 | 0.0 | -0.7 | -1.9
O=C(N/N=C/c1ccccc1Br)c1cccc(S(=O)(=O)N2CCOCC2)c1 | . | . | 11.5 | 5.7 | . | . | -0.4 | -7.5
Cc1ncoc1C(=O)N1CCCC(C(=O)c2ccc3c4c(cccc24)CC3)C1 (stereo not given) | -5.8% | 36.2 | 1.2 | 4.3 | 9.9 | 2.4 | 0.2 | -6.6
COc1ccc(C(=O)N[C@H](C(=O)N2CCN(c3ccccc3F)CC2)C(C)C)cc1 | -4.4% | 27.6 | 0.8 | -1.9 | 4.3 | 0.0 | -2.1 | 1.2
O=C(Nc1nccs1)c1ccc(CSc2ccccc2)o1 | . | 26.7 | -3.7 | 2.2 | -9.1 | -2.4 | -0.8 | -7.2
C[C@H](CO)N1C[C@H](C)[C@@H](CN(C)C(=O)Nc2ccccc2)Oc2ccc(NC(=O)Nc3ccc4c(c3)OCO4)cc2C1=O | . | . | -3.4 | -4.8 | . | . | 0.1 | -6.9
CC(C)c1ccc2oc(-c3cc(N)ccc3O)nc2c1 | ? | ? | -6.6 | . | 59.6* | -2.3 | -6.2 | 14.5
CC(=O)N/N=c1\sc2ccccc2n1C | 3.7% | -2.8 | -3.4 | -2.8 | -2.5 | ? | -1.0 | -4.6
CCn1c(=O)cc(OCC(=O)N2CCN(C(=O)c3ccco3)CC2)c2ccccc21 | 0.2% | ? | 2.4 | . | 0.4 | -0.9 | -0.4 | -3.6
CN(C)CCCNC(=O)/C(=C/c1ccc(-c2ccc([N+](=O)[O-])cc2)o1)NC(=O)c1ccccc1 | -8.8% | -9.2 | 1.1 | 4.3 | 21.4 | -11.1 | 0.3 | 3.0
Nn1c(=O)[nH]c2c([nH]c3ccccc32)c1=O | 0.9% | -12.3 | -6.0 | -15.9 | -1.8 | 5.6 | 0.8 | 3.2
COc1ccc(/C(N)=N/OC(=O)c2cccs2)cc1OC | -5.0% | 2.1 | 2.9 | -3.2 | 0.5 | -3.3 | -0.5 | -4.2
O=S(=O)(/N=C(/Nc1ccc(F)c(F)c1F)c1ccccc1)c1ccccc1 | . | 19.8 | 1.7 | . | -14.7 | 1.4 | 0.6 | -2.8
C=CCn1c(CCC(=O)O)ccc1-c1ccccc1 | 2.7% | 20.9 | 0.3 | -39.5 | 9.0 | -6.0 | 0.4 | -2.1
O=C(CN1C(=O)c2cccc3cccc1c23)NCc1ccncc1 | 4.5% | -9.0 | 2.1 | . | -5.3 | 3.1 | 0.3 | -7.8
CC(=O)Nc1cccc(NC(=O)CSc2ccc(-c3ccccn3)nn2)c1 | -10.9% | 26.8 | -4.6 | -3.5 | 6.3 | 4.3 | 0.9 | 0.7
O=C(CSc1nnc2ccccn12)Nc1ccccc1C(=O)NC1CC1 | 27.6% | -11.5 | 0.6 | . | -9.3 | -2.5 | 0.1 | -0.5
COCCn1c(C)cc(C2=NNC(=Nc3ccccc3)SC2)c1C | 3.3% | -3.2 | 1.5 | . | 6.6 | ? | -1.5 | -5.6

(further entries)
SMILES | Vif A3G | Calb FLC | LANA-H2A inh | MLL AF4-AF9 inh | T cruzi repl | RanGTP-Imp inh | A1 inh | Beta apoptosis
O=C(NNc1c(Cl)cccc1Cl)C1CCC1 | -0.2% | -5.7 | -1.3 | -2.5 | -9.7 | -4.2 | 0.6 | -12.6
O=C(NNC(=S)Nc1cccc(Cl)c1)c1ccccc1OC(F)F | ? | ? | -1.7 | . | -10.0 | 0.0 | 2.1 | -2.7
Cn1cc(CN2CCCC(CO)(Cc3ccccc3)C2)cn1 (stereo not given) | 16.9% | 14.7 | -0.5 | -22.0 | -2.4 | -1.6 | -0.2 | .
Cc1ccc(-c2nnc(SCC(=O)NC(=O)Nc3ccc(C)cc3C)n2N)cc1 | . | -2.6 | 1.4 | . | -4.9 | -2.5 | -2.5 | -2.9
CCc1ccc(-c2nc(CS(=O)CC(=O)NCCCN3CCOCC3)c(C)o2)cc1 (stereo not given) | . | -10.1 | 4.5 | -3.9 | 17.6 | -3.3 | -0.8 | -7.4
CCOc1ccc(S(=O)(=O)Nc2cccc(C(=O)NCC(C)(C)N3CCOCC3)c2)cc1 | 1.4% | 3.1 | 1.1 | 2.0 | -8.9 | 3.3 | -1.0 | -8.5
COc1ccc2[nH]c3c(NCCCOC(C)C)ncnc3c2c1 | -7.4% | -1.0 | 3.5 | 3.0 | 10.9 | 4.3 | -8.7 | 6.0
CCCC[C@@H]1CNC(=S)N1CCCC | 32.9% | -13.7 | -2.8 | -1.6 | 1.4 | -5.9 | -0.2 | -4.7
CC1(c2cccc(Br)c2)NC(=O)N(CC(=O)Nc2cccnc2Cl)C1=O (stereo not given) | . | -0.1 | -5.4 | -1.3 | -14.4 | 3.0 | -0.1 | -3.8
Cc1cc(-n2c(C)cc(C(=O)COc3ccccc3[N+](=O)[O-])c2C)no1 | -4.1% | -9.1 | 3.2 | 7.6 | -5.2 | ? | -0.9 | 4.3
CC(=O)OC[C@H]1O[C@@H](Oc2cc(O)cc3oc(-c4ccc(O)cc4)cc(=O)c23)[C@H](O[C@@H]2O[C@@H](C)[C@H](O)[C@@H](O)[C@H]2O)[C@@H](O)[C@@H]1O | . | . | 2.2 | -1.5 | . | . | -0.7 | -0.8
CC1Oc2ccccc2OC1C(=O)Nc1nccs1 (stereo not given) | . | -8.2 | -0.7 | 1.8 | -6.5 | 0.5 | 0.5 | -10.2
CN(C)S(=O)(=O)c1ccc2nc(NC(=O)c3cccnc3)sc2c1 | -5.9% | 4.0 | 2.7 | . | -10.7 | -1.4 | -3.0 | -3.7
CCOC(=O)C1CCCN1C(=O)c1ccc(OC)c(Br)c1 (stereo not given) | 10.8% | 24.5 | 1.2 | -2.9 | -12.0 | -0.2 | -0.8 | -6.5
O=C(COc1ccc(S(=O)(=O)N2CCOCC2)cc1)Nc1cccc([N+](=O)[O-])c1 | . | -3.2 | 5.8 | 1.4 | 17.1 | 2.5 | -0.7 | -5.7
O=c1[nH]c(CN2CCN(S(=O)(=O)/C=C/c3ccccc3)CC2)nc2cc(Cl)ccc12 | -8.6% | -2.4 | -2.2 | 10.7 | 11.9 | ? | 1.3 | -3.2
CON(C)S(=O)(=O)NC(=O)C1=C(N2CCCC2)COC1=O | . | . | -2.6 | -3.0 | . | . | -0.3 | 4.0
COc1ccc(CCNC(=O)CNS(=O)(=O)c2ccc(Cl)cc2)cc1 | . | -16.2 | -4.6 | -0.7 | . | -2.9 | 0.1 | .
COc1ccccc1N(CC(=O)NCCSCc1cccc(Cl)c1)S(C)(=O)=O | -0.5% | 0.7 | 3.9 | -0.8 | -3.8 | -4.1 | -0.4 | -0.7
COc1ccc(C(=O)NN(C)c2nc(-c3ccccc3)nnc2C(F)(F)F)cc1 | -3.9% | 0.9 | 2.4 | . | -1.9 | 0.3 | -0.3 | 1.9
Cc1nn(C)c(C(=O)Nc2ccc3c(c2)OCO3)c1[N+](=O)[O-] | . | 5.2 | -4.9 | -3.5 | -3.6 | -0.4 | 0.0 | -4.9
C=CCSc1ncc(CO)n1Cc1ccccc1 | 2.8% | -11.8 | 0.2 | -1.1 | -8.8 | 2.0 | -0.7 | -5.1
CCn1nnc(NC(=O)COc2cc(C)ccc2C(C)C)n1 | 15.6% | 6.7 | 6.7 | . | 8.3 | -2.6 | 1.2 | -5.9
CN(c1ccccc1C(=O)N1CCN(Cc2ccc3c(c2)OCO3)CC1)S(C)(=O)=O | -3.4% | 0.3 | 8.1 | 0.7 | -8.7 | 0.8 | 0.9 | -9.7
C/C(=N/OC(=O)c1c(-c2c(F)cccc2Cl)noc1C)c1cnccn1 | 0.6% | 2.4 | 6.1 | -1.4 | 8.6 | -0.8 | -0.2 | -2.1

Next part.
SMILES | Vif A3G | Calb FLC | LANA-H2A inh | MLL AF4-AF9 inh | T cruzi repl | RanGTP-Imp inh | A1 inh | Beta apoptosis
Cc1nn(CC(=O)Nc2ccc(C(C)C)cc2)c(C)c1[N+](=O)[O-] | -1.0% | 5.1 | 0.1 | -13.7 | 6.8 | -3.3 | 0.5 | -9.4
Cc1cc(C(=O)N/N=C/c2ccc(OCc3ccccc3)cc2)c(C)o1 | . | 25.0 | -8.0 | 4.3 | 9.1 | 2.7 | -4.2 | -2.7
O=C1/C(=C\c2ccccc2)CCc2c1[nH]c1ccccc21 | 0.5% | -5.0 | -6.0 | . | 8.1 | -7.4 | 0.2 | 3.0
Cc1ccc(C(=O)NC(=S)Nc2cccc3c(C)cc(C)nc23)cc1 | 28.0% | -3.9 | -6.0 | . | 29.3 | 4.4 | 0.5 | -2.3
Fc1ccc(-n2c(-c3ccc4ccccc4n3)n[nH]c2=S)cc1Cl | -3.4% | -8.1 | -2.1 | -0.5 | 1.8 | 3.2 | 0.4 | 0.0
CCOc1cc(N2CCOCC2)c(OCC)cc1NC(=O)COC(=O)c1ccc(Cl)cc1N | 6.9% | . | -3.0 | 0.9 | . | . | 1.6 | 1.5
CC(C)Oc1ccc(C(=O)NC2=NCCS2)cc1 | 5.7% | 2.8 | 0.0 | 1.3 | -32.5 | -1.8 | -0.3 | .
CCc1nnc(NC(=O)C(CC)CC)s1 | -6.3% | 1.9 | 0.6 | 3.6 | 1.1 | 0.5 | -0.5 | -0.4
CCN1CCN(CCCNC(=O)C(=O)c2c(C)[nH]c3ccccc23)CC1 | 18.2% | -5.6 | -1.5 | 0.8 | -5.7 | 10.9 | -0.3 | -4.9
O=C(Nc1ccc(O)cc1)/C(=C\C=C\c1ccccc1)NC(=O)c1ccccc1 | 24.9% | 0.1 | -0.8 | 5.5 | 4.3 | -2.5 | -0.1 | -3.6
